# Screens as filed in PubChem.
# TRPML1 blocker = qHTS for Inhibitors of the Human Mucolipin Transient Receptor Potential 1 (TRPML1); activity change, negative = inhibition, % (concentration not given with the values); TRPML1-inducible cells, Ca2+ dye fluorescence, FDSS; stronger effect = lower value; inhibition of EC80 agonist-evoked calcium signal; hit rate 0.02% among 390,000; Mucolipin-1 (Homo sapiens), Q9GZU1; in the data active means activity change below about -50%; inconclusive means about -30% to -50%; inactive means above about -30%;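 also: stimulus is agonist 54-4 at its EC80 concentration; % is scaled to controls: 0 for no effect and ±100 for the full control effect; compound concentration not given in the record; the text of the record puts the active cut at -80%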
# Target sequence (Q9GZU1 whole entry, looked up): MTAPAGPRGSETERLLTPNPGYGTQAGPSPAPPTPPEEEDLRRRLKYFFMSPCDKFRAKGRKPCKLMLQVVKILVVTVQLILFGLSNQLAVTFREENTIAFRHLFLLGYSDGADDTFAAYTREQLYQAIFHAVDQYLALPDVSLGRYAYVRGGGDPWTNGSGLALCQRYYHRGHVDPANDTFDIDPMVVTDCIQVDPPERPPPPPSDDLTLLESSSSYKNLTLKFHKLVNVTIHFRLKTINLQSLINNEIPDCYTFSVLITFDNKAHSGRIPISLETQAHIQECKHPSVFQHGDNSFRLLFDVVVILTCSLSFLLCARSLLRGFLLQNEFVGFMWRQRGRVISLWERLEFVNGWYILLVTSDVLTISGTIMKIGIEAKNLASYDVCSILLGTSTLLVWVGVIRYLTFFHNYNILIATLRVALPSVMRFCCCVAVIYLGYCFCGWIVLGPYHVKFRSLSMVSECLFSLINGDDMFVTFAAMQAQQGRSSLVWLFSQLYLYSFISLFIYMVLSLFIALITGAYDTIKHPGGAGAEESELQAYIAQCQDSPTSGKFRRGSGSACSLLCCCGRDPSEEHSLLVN
#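 TRPML1-DL cells, Tet-induced overnight (~16 h, 37 °C) at 1,500 cells/well, were loaded with Ca8 no-wash dye plus quencher for 45-90 min at room temperature. Compounds were pinned during FDSS kinetic reading; agonist 54-4 at EC80 (4 uM final) then added.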
# TRPML1 ag = qHTS for Agonists of the Human Mucolipin Transient Receptor Potential 1 (TRPML1). Mucolipin-1 (Homo sapiens), Q9GZU1. TRPML1-expressing cells, Ca2+ dye fluorescence, FDSS; host cell line not named in the record; reference of the full effect not given here. activation, % (no concentration beside the values). hit rate 0.12% among 410,000. AID 624414, 2012; in the data active = activation above about 50%; inconclusive = about 30% to 50%; inactive = below about 30%; also: 0% is about no effect; the text of the record puts the active cut at 80%
#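 Cells: TRPML1-DL, 1X Tet inducer, ~16 h at 37 degrees C/5% CO2. Dye: ABD Ca8 no-wash + quencher, 45-90 min RT. Read: 10 s baseline, compound add, 110 s agonist phase; 54-4 EC80 (4uM final), 110 s antagonist phase.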
# gsp antagonist = qHTS for Antagonists of gsp, the Etiologic Mutation Responsible for Fibrous Dysplasia/McCune-Albright Syndrome: qHTS; gsp-mutant cells, cAMP HTRF, 30 min; control for the full effect not named in the record; Potency, µM (doses to about 76.9 µM), inactives show at the top dose activity change, negative = inhibition, most hits filed as inhibitors; hit rate 0.4% among 340,000; AID 624288, 2012; active = falling curve of any shape with a large fitted effect; inconclusive = falling curve, mostly with a smaller effect; inactive = flat or rising curve; cell line not stated here;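 also: intracellular cAMP measured with PDE inhibitor Ro 20-1724 present during compound exposure; potency is read from the fitted curve at half-maximal effect; % is scaled to controls: 0 for no effect and ±100 for the full control effect; nearly all actives have a fitted effect of over 65% in size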
#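 HTRF cAMP read-out (cAMP-d2 plus anti-cAMP antibody-K in lysis buffer, 30 min RT). Before lysis, cells are exposed to compounds with […] for 30 min at 37C in DPBS containing Ca/Mg, BSA and Tween 20.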
# gsp ag = qHTS for Agonist of gsp, the Etiologic Mutation Responsible for Fibrous Dysplasia/McCune-Albright Syndrome: qHTS. gsp mutant cells, cAMP HTRF, 30 min; control for the full effect not named in the record. Potency, µM (doses to about 76.9 µM), inactives show top-dose activation (cAMP increase), actives largely listed as activators. hit rate 0.13% among 340,000; active = well fitted activation curve with a large enough effect; inconclusive = small, poorly fitted or top-dose-only effect, or another doubt; inactive = no such curve, though single readings can be large or run the other way; cell line not stated here;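 also: phosphodiesterase inhibitor Ro 20-1724 added with compounds to block cAMP breakdown; potency is read from the fitted curve at half-maximal effect; nearly all actives have a fitted effect of over 60% in size; about a fifth of the inactives were tested at one dose only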
#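 Cells stably selected in G418 were plated at 2000/well, grown 16-24 hr, then given compounds in DMSO with the PDE inhibitor […] (300 uM solution added) for 30 min at 37C; cAMP was read by HTRF.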
# Menin-MLL FL inh = qHTS Assay for Inhibitors Targeting the Menin-MLL Interaction in MLL Related Leukemias: Competition With Fluorescein Labeled MLL-derived Peptide; Fluorescence polarization, fluorescein-MLL peptide displacement from menin; FP activity change, % at 61.4 µM; 290,000 tested, under 10 active; inconclusive = falling polarisation curve, or a change in total fluorescence; inactive = total fluorescence flat and polarisation flat or rising; no compound was filed as active; the % refers to the polarisation; negative = inhibition;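 also: % of control where 0% means no effect; inhibitors lower the polarisation; unlabelled MLL peptide was the positive control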
# ClpP mod = qHTS Assay for Activators of ClpP | ATP-dependent Clp protease proteolytic subunit (Bacillus subtilis (strain 168)), P80244 | Potency, µM (top dose mostly 57.5 µM), for inactives: at the highest dose activity change, negative = active | AID 651965, 2013 | purified B. subtilis ClpP, FRET peptide cleavage, 20 min | hit rate 1.9% among 340,000; active = well fitted falling curve with a large enough effect; inconclusive = small, poorly fitted or top-dose-only effect; inactive = no such curve, though single readings can be large or run the other way; also: potency is read from the fitted curve at half-maximal effect; the source files actives as falling curves though it sought activators and does not explain the sign; nearly all actives have a fitted effect of over 65% in size; many hits overshoot -100%
# Target sequence (P80244 whole entry, looked up): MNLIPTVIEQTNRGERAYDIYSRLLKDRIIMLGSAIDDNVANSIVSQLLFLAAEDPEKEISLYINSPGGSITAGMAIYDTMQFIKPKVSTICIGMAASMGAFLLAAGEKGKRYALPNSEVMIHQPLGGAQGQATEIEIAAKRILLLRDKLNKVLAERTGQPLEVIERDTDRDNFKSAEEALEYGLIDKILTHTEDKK
#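 FRET quenching reversal measured ClpP activation: 10 microg/mL B. subtilis ClpP at pH 8 with the FRET-FV decapeptide, read at 430 nm after 320 nm excitation. The 20-min minus 0-min signal was scaled between DMSO/no-enzyme wells and ADEP (5.8 microM final).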
# An asterisk follows results filed as active; ? = inconclusive; nt = not tested or not shown; [ ] = another dose, or the depositor's remark.
SMILES,TRPML1 blocker,TRPML1 ag,gsp antagonist,gsp ag,Menin-MLL FL inh,ClpP mod
O=C(N/N=C/C=C\c1ccccc1)c1cnccn1,12,-0.3,1%,12%,-4.3,nt
Cc1ccc(CNC(=O)CCc2cn(Cc3ccc(C)cc3)c3ccccc23)cc1,25,0.3,nt,nt,nt,-8.9%
CCOC(=O)C1CCN(C(=O)c2cc3c(C)cc(C)cc3[nH]2)CC1,0,2.6,0%,-30%[inhibitor],-6.1,-3.6%
COC(=O)C1=C(C)N(Cc2ccccc2)C(=O)N[C@H]1c1cccc(C(F)(F)F)c1,4,-0.4,7%,nt,0.7[11.7 µM],-1.5%
Nc1nnc(SCC(=O)Nc2ccccc2N2CCOCC2)s1,6,0.3,-11%,12%,2.2,-3.6%
C=CCn1c(COc2ccccc2)nnc1SCc1ccc(C#N)cc1,21,-0.1,-6%,-43%[inhibitor],0.4,1.2%
COC(=O)NNC(=O)COc1cc(C)c(Br)cc1C(C)C,-6,0.7,12%,16%,4.2,-1.8%
CCOc1ccc(-c2nnc(SCC(=O)NCc3ccc(C)cc3)nc2-c2ccc(OCC)c(OC)c2)cc1OC,6,-0.2,nt,nt,nt,-3.2%
Cc1noc(C)c1S(=O)(=O)N1CCC(C(N)=O)CC1,79,0.1,5%,-30%[inhibitor],nt,0.8%
COc1ccccc1OCc1ccc(C(=O)NCC2CCCO2)o1 (centres undefined),1,-1.5,1%,?,-0.1,-1.1%
COc1ccc(S(=O)(=O)N2CCCCC2)cc1NC(=O)c1cccc(S(=O)(=O)N2CCOCC2)c1,1,0.0,?,11%,nt,5.0%
COc1ccc(/C=C(\C#N)C(=O)NCc2cccs2)cc1OC,11,0.1,1%,5%,7.9,24%
O=C(C1=C[C@@H](c2ccc3c(c2)OCO3)C[C@@H](OCCCCO)O1)N1CCN(Cc2ccc3c(c2)OCO3)CC1,15,1.1,-11%,nt,-0.9,-4.8%
Cc1ccccc1OCC(=O)N/N=C/C=C/c1ccccc1,-12,3.1,-13%,?,-1.1,4.2%
C/C(=N\Nc1cccc([N+](=O)[O-])c1)c1ccccc1O,-5,1.6,nt,18%[15.4 µM],-1.6,nt
Cc1cccn2c(=O)c3cc(C#N)c(=NC(=O)c4cccs4)n(CCCOC(C)C)c3nc12,7,5.1,?,-11%[15.4 µM],2.8,nt
N#CCCn1cc(C(=O)CN2C(=O)C(=O)N(C3CCCC3)C2=O)c2ccccc21,-4,2.3,5%,59%[15.4 µM],nt,nt
Cc1c(NC(=O)NC(C)N2C(=O)C3C4C=CC(C4)C3C2=O)c(=O)n(-c2ccccc2)n1C (centres undefined),3,0.1,12%,-32%[inhibitor],-0.6,1.6%
CN(Cc1ccc(F)cc1)C(=O)c1cccc(S(=O)(=O)NCc2ccccc2)c1,3,5.0,-4%,36%[15.4 µM],nt,nt
Cn1c(=O)oc2cc(S(=O)(=O)N3CCC(C(=O)Nc4ccc(F)c(Cl)c4)CC3)ccc21,-8,-0.1,nt,nt,nt,-9.0%
O=[N+]([O-])c1ccccc1-c1ccc(CN2CCN(c3ccccc3)CC2)o1,5,-0.6,2%,-3%,1.4,nt
c1ccc(CSc2nnc(-c3sccc3-n3cccc3)o2)cc1,16,2.2,1%[15.4 µM],0%,1.1,-1.7%
COc1ccc(NC(=O)Oc2cc(C)ccc2C(C)C)cc1,-2,3.1,2%,-4%[15.4 µM],-1.5,nt
CCOC(=O)C1(Cc2cccc(F)c2)CCN(C(=O)c2cscn2)CC1,21,0.6,8%,-1%[15.4 µM],-3.4,nt
COc1ccc(NC(=O)CN2C(=O)C3CC=CCC3C2=O)cc1Cl (centres undefined),10,-0.3,nt,-41%[inhibitor],nt,-1.2%
O=S(=O)(c1cccs1)N1CN(Cc2ccccc2)c2nc3ccccc3nc21,-4,0.8,-7%,-13%,3.5,?
O=C(O)c1nn(CCOc2cccc(Br)c2)c(=O)c2ccccc12,10,2.7,0%,23%[15.4 µM],nt,nt
Cc1ccccc1NC(=O)Cc1nc(CCl)cs1,55,-0.9,8%,-24%,-0.4,-2.0%
Cc1nc(-c2cccc(S(=O)(=O)N3CCCCC3)c2)cs1,-15,-0.7,3%,-35%[15.4 µM],4.7,nt
CCS(=O)(=O)N1CC(=O)N(c2cc(C)ccc2C)C(C)(C(=O)NC2CCCCC2)C1 (centres undefined),-12,0.4,nt,nt,nt,1.7%
COc1cccc(CNC(=O)CCc2c(C)nc3c(c2C)c(=O)n(C)c(=O)n3C)c1,-5,-0.2,nt,nt,nt,-1.3%
Cc1ccc(CN(C(=O)COc2ccccc2[N+](=O)[O-])c2ccccn2)o1,-2,-0.4,nt,nt,nt,0.8%
CCOC(=O)N1CCN(S(=O)(=O)c2c(C)nc3scc(C)n3c2=O)CC1,-6,0.9,-24%,?,nt,3.9%
CNC(=O)C1CCC(Cn2c(=O)c3sccc3n(CC(=O)Nc3cc(F)ccc3F)c2=O)CC1 (centres undefined),20,0.5,nt,nt,nt,-0.7%
O=C(/C=C/c1ccccc1F)N1CCN(c2ccccn2)CC1,9,-0.6,-1%,15%,nt,-3.0%
Cc1ccccc1N(CC(=O)NCC1CCCO1)C(=O)C1(C)CC(=O)N=C2C=CC=CN21 (centres undefined),2,-0.6,2%,8%,-1.5,?
CCCN(CC(=O)Nc1ccccc1C)C(=O)c1cnc(C)cn1,-1,-0.9,6%,-39%[inhibitor],nt,1.6%
Cc1cccc2c1-c1sc(C(=O)NCCCN3CCC(C)CC3)cc1CO2,4,-0.4,5%,33%,-2.7,4.2%
CN(C)c1ccc(S(=O)(=O)NCC(=O)OCC(=O)c2ccc[nH]2)cc1[N+](=O)[O-],18,-0.9,-2%,-61%[inhibitor],nt,1.0%
COc1ccc(C(C)=O)cc1CSc1nnc(Nc2ccccc2)s1,0,0.3,?,-7%[15.4 µM],4.6,0.8%
CCN(CC(=O)NCCCn1ccnc1)S(=O)(=O)c1ccc(C)cc1,0,0.0,-13%,-8%[15.4 µM],-2.2,nt
Cc1cccc(NC(=O)/C(C#N)=C/c2cccc([N+](=O)[O-])c2)n1,-12,0.6,-1%,?,-1.7,10%
Cc1ccc(N2CCN(S(=O)(=O)c3ccc(F)c(C(=O)Nc4ccc(Cl)cc4Cl)c3)CC2C)cc1 (centres undefined),-5,0.6,nt,nt,nt,-3.9%
CCC(C)NC(=O)c1ccc(COc2ccccc2Cl)cc1 (centres undefined),2,-0.3,-3%,-33%[inhibitor],1.9,0.4%
Cn1cc(C(=O)O)c(-c2ccc3c(c2)OCCCO3)n1,7,1.2,1%,15%[15.4 µM],-5.9,nt
O=[N+]([O-])c1ccc(N2N=C(c3ccco3)CC2c2ccccc2)cc1 (centres undefined),16,13,0%,-43%,?,-1.4%
Cc1ccc(S(=O)(=O)N2CCN(C(=O)Cn3c(=O)cnc4ccccc43)CC2)c(C)c1,1,0.2,-15%,-7%[15.4 µM],nt,0.2%
CC(C)(C)CN1CCNC(=O)C1CC(=O)NCCN1CCCc2ccccc21 (centres undefined),11,0.8,-2%,-30%,-19,nt
CC1CCCCN1C(=O)COC(=O)CNC(=O)c1ccc(Cl)cc1Cl (centres undefined),5,-0.7,9%,9%,nt,1.2%
C#CCOc1ccc(Br)cc1/C=N/O,21,1.2,6%,-16%,0.3,-1.6%
# (more compounds)
SMILES,TRPML1 blocker,TRPML1 ag,gsp antagonist,gsp ag,Menin-MLL FL inh,ClpP mod
O=C1NC2(CCCCCC2)N=C1c1ccc(F)cc1,0,4.1,-16%,0%,1.8,0.8%
N=c1ccn(O)cc1CCc1ccccc1,12,0.2,11%,?,nt,nt
CC(=O)N1CCN(S(=O)(=O)c2ccc3c(c2)OCCO3)CC1,-7,0.6,8%,-4%,nt,0.6%
COc1ccc(-c2nc(CSc3nnc(C)n4c3cc3sccc34)c(C)o2)cc1,-17,-0.2,nt,nt,nt,?
COc1ccccc1Nc1nn2c(=O)c3ccc(C(=O)NCCCOC(C)C)cc3nc2s1,11,-0.2,nt,nt,nt,22%
CCCn1c(=O)n(CC(=O)NCC2CCCO2)c(=O)c2c3c(sc21)COC(C)(C)C3 (centres undefined),7,-0.3,-3%,?,nt,1.3%
COc1ccc(CNC(=O)CSC(=S)N2CCCC2)cc1,-17,0.1,5%,-3%[15.4 µM],nt,-2.7%
O=C(O)c1c(-c2ccc(Cl)cc2)cn2ccccc12,-3,1.7,-14%,7%[15.4 µM],-0.3,nt
COc1ccc(Oc2cnn(-c3ccccc3)c(=O)c2Br)cc1,-14,0.5,-11%,?,4.8,-0.8%
Cc1cc(C(=O)NC2CCCc3ccccc32)c(C)o1 (centres undefined),18,-0.2,-14%,-43%[inhibitor],0.5,0.5%
O=C(COC(=O)c1ccc2ccccc2n1)Nc1ncc(C(F)(F)F)cc1Cl,4,0.0,-19%,-7%,2.4,-13%
CCC(C)(C)n1nnnc1C(c1ccc(OC)c(OC)c1)N1CCN(c2ccc(OC)cc2)CC1 (centres undefined),-7,-0.1,-6%,-18%,3.6,-4.4%
CN(C)S(=O)(=O)N(CC(=O)Nc1ccc(F)c(F)c1)c1ccccc1,14,-0.8,-4%,1%,0.8,0.8%
Cc1cc(C)n(C(=O)c2ccc(Cn3nc(C)c(Br)c3C)o2)n1,-20,0.0,-1%,18%,2.6,1.1%
CCCC(NC(=O)CCl)c1ccccc1 (centres undefined),-4,-0.5,4%,-22%,3.4,-0.6%
CC1CCCCC1NC(=O)c1ccc(NS(=O)(=O)c2ccc3[nH]c(=O)[nH]c3c2)cc1 (centres undefined),0,-0.5,12%,-7%,nt,0.9%
CC(C)C(C)NC(=O)COc1ccc(S(=O)(=O)N2CCOCC2)cc1[N+](=O)[O-] (centres undefined),-11,-0.4,3%,18%,0.0,1.7%
Cc1cccc(C)c1Nc1c(-c2ccccc2Cl)nc2cnccn12,-18,1.7,nt,nt,nt,-25%
CCOC(=O)c1c(C)nc2c(c1-c1ccccc1)C(=O)CC(C)(C)C2,28,-0.7,-5%,-37%[inhibitor],0.3,-9.6%
CCOC(=O)CSc1nnc(CNC(=O)c2ccc(S(=O)(=O)N3CCOCC3)cc2)n1C,-10,0.1,10%,-4%[15.4 µM],-5.8,nt
Cc1[nH]c2ccccc2c1C(c1ccccn1)c1c(C)[nH]c2ccccc12,44,3.1,-11%,8%,?,1.0%
